# H5N1 CPE: antiviral screen in MDCK cells, H5N1 avian flu | inhibition, % at 50 µM | actives 0.07% (n = 96,000) | cytopathic effect, luminescence, 72 h; active compounds read high; no value below 0 was filed and about half of the inactive calls have no number; reference of the scale not given here | AID 740; in the data active = inhibition above about 25%
# An asterisk follows results filed as active; i = inactive.
SMILES,H5N1 CPE
c1csc(C(c2nnnn2C2CCCC2)N2CCOCC2)c1 (stereo not drawn),i
COc1ccc(CCNc2ncnc3[nH]ncc23)cc1OC,1.3
COc1ccc(-n2c(SCC#N)nnc2-c2cccnc2)cc1,0.5
Cc1cccc(Nc2ccccc2)c1,0.2
O=C(c1cccs1)N1CCCC(c2ccccc2)C1 (stereo not drawn),3.4
O=C(O)CC(NC(=O)c1ccccc1NC(=O)c1ccccc1)C(=O)O (stereo not drawn),0.2
C=CCSc1nnc(-c2cc3c(C(F)(F)F)nn(C)c3s2)n1C,i
O=C(Nc1ccon1)c1cccc(S(=O)(=O)N2CCCC2)c1,i
O=C(CS(=O)(=O)c1cn(Cc2ccc(Cl)cc2)c2ccccc12)N1CCOCC1,1.5
COCCn1c(SCC(=O)Nc2ccccc2)nc2c1c(=O)[nH]c(=O)n2C,2.1
Cc1nc(C)n(CC(O)COc2ccc3cc(Br)ccc3c2)n1 (stereo not drawn),i
COc1ccc(C(=O)OCC(=O)Nc2cc(C)on2)cc1S(=O)(=O)N1CCOCC1,i
CCC(C(=O)Nc1nccs1)(C(F)(F)F)C(F)(F)F,2.8
Cc1ccc(P(=O)(CO)c2ccc(C)cc2)cc1,i
CCOC(=O)c1[nH]c(C)c(C(=O)O)c1C,0.6
COCCCN1C(=O)C(=O)/C(=C(/O)c2ccc(OC(C)C)cc2)C1c1ccncc1 (stereo not drawn),i
CSc1nsc(/C=C/Nc2cccc(Cl)c2)c1C#N,0.8
OCCOCCNc1ncnc2sc(-c3ccccc3)cc12,0.7
CCOC(=O)N1CCN(S(=O)(=O)c2cc(C)c(C)cc2C)CC1,0.8
NC(=O)CSc1oc(-c2ccc(F)cc2)nc1S(=O)(=O)c1ccccc1,i
Cc1ccc(Nc2ccc(C(=O)N3CCCC3)cn2)c(C)c1,i
Cc1cc2nc(N)sc2cc1C,i
O=S(=O)(c1ccc(Oc2ccc3oc4ccccc4c3c2)nc1)N1CCCC1,0.5
Cc1ccc(NC(=O)C(C)c2ccc(-c3ccccc3)c(F)c2)cc1 (stereo not drawn),3.6
Cc1ccc(NC(=O)C[n+]2ccccc2)cc1[N+](=O)[O-],i
SMILES,H5N1 CPE
C=CCC1(CN2CCCC2=O)C(=O)NC(=O)NC1=O,i
COc1ccc(Oc2nc(C)cc(C)c2S(=O)(=O)c2ccc(C)cc2)cc1,i
Cc1cccc(C)c1NC(=O)N1CCC(c2nc3ccccc3o2)CC1,i
Cc1ccc(S(=O)(=O)N2CCN(C)CC2)c(C)c1,i
CCOc1ccc(C2C(C#N)=C(N)SC(N)=C2C#N)cc1OC,i
CCC1CCCCN1CCNC(=O)C1CCN(S(=O)(=O)c2c(C)noc2C)CC1 (stereo not drawn),0.5
Cc1cc2c(c(=O)o1)C(C(C)C)C(C#N)=C(N)O2 (stereo not drawn),0.1
Cc1nnc(NC(=O)CCC(=O)NCc2ccco2)s1,0.1
Cc1nc(SCC(=O)N2CCc3ccccc3C2)c2c(C)c(C)sc2n1,0.2
CN1CCN(C2=C(Cl)C(=O)N(c3ccc(Cl)cc3)C2=O)CC1,i
CCOC(=O)N1CCN(c2c(NCCc3ccc(OC)c(OC)c3)c(=O)c2=O)CC1,i
Cc1ccc(NC(=O)CCc2c(C)nc3ncnn3c2C)nc1,i
CCN(CC)C(=O)c1csc(Nc2ccc(C)cc2)n1,i
Cc1[nH]c(=O)[nH]c(=O)c1S(=O)(=O)N1CCC(C(=O)N2CCN(Cc3ccccc3)CC2)CC1,i
C=CCN=c1sc(C(=O)OC)cc(=O)n1CC=C,3.4
O=C1C2C3C=CC(C2C(=O)N1CCCO)C1C2C(=O)N(CCCO)C(=O)C2C31 (stereo not drawn),0.9
O=C(Cn1c(=O)oc2cc(S(=O)(=O)N3CCOCC3)ccc21)N1CCc2ccccc2C1,0.3
O=C(Nc1ccccc1N1CCN(C(=O)c2ccccc2)CC1)c1cc2ccccc2o1,4.8
CC(=O)c1cccc(NS(=O)(=O)c2ccc(N/C=C\C(=O)c3ccc(F)cc3)cc2)c1,3.8
Cc1ccc(OCCCC(=O)NCc2ccco2)cc1,i
COc1ccc(CCNC(=O)c2nnc(Cc3c(F)cccc3Cl)o2)cc1OC,i
O=C1Nc2ccccc2C12OCCCO2,1.0
CCOC(=O)c1cnc2ccc(C)cc2c1Sc1ccccc1,2.9
COc1cc2c(cc1OC)CN(C(=O)CC1CC3CCC1C3)CC2 (stereo not drawn),i
Cc1ccc(N2CCN(C(=O)CN3C(=O)c4ccccc4C3=O)CC2)cc1,0.3

# Single values from the entries so far.
# Entry for `O=C(Cn1c(=O)oc2cc(S(=O)(=O)N3CCOCC3)ccc21)N1CCc2ccccc2C1` in H5N1 CPE: 0.3
# Entry for `O=C(Nc1ccccc1N1CCN(C(=O)c2ccccc2)CC1)c1cc2ccccc2o1` in H5N1 CPE: 4.8
# Entry for `CCOC(=O)c1cnc2ccc(C)cc2c1Sc1ccccc1` in H5N1 CPE: 2.9

# The list goes on.
SMILES,H5N1 CPE
O=C(Nc1cccc2c1CCCC2)C1CCCN(S(=O)(=O)c2cccc3nonc23)C1 (stereo not drawn),i
COC(=O)N1CCN(c2ccc(C(C)=O)cc2)CC1,i
CCOC(=O)/C(C(N)=NC(C)C)=C(\O)c1ccccc1,1.1
Cc1cc(C)cc(N(C(=O)CNC(=O)c2ccco2)C(C(=O)NC2CCCC2)c2cccnc2)c1 (stereo not drawn),i
CCC(=O)c1cc(F)c(N2CCN(S(=O)(=O)c3ccccc3)CC2)cc1C,2.4
C#CC(CO)N(CCN(Cc1ccccc1)C(C#C)CO)Cc1ccccc1 (stereo not drawn),i
CSCCC(NC(N)=O)C(=O)NCC1CCCCC1 (stereo not drawn),0.2
Nc1nc(Cl)cc(N2CCOCC2)n1,0.4
COCC(C)n1c(SCc2ccc(C(=O)OC)o2)nc2ccccc2c1=O (stereo not drawn),1.0
CCOC(=O)c1ccccc1NC(=O)COC,0.8
CCOc1ccc(NC(=O)C2CC(=O)N(CC)C(=Nc3ccc4c(c3)OCO4)S2)cc1 (stereo not drawn),i
Cc1ccc(Nc2nc(N)nc(CSc3nccn3C)n2)c(C)c1,i
N#CC1=C(N)Oc2n[nH]c(-c3ccccc3)c2C1c1cccc(OC(=O)N2CCOCC2)c1 (stereo not drawn),i
N#CC1(C#N)C2=C(CCCC2)NC(c2ccccc2)C1(C#N)C#N (stereo not drawn),i
CCC(=O)Nc1c(C)ccc2nsnc12,1.0
CCSC1=C(C#N)C(c2cccc(OC)c2)CC(=O)N1 (stereo not drawn),0.2
CN(C)CCCNC(=O)c1ccccn1,0.1
CC1Cc2ccccc2N1S(=O)(=O)c1cccc(C(=O)NC2CC2)c1 (stereo not drawn),i
CN(C)C(=O)c1cc(S(=O)(=O)N(C)C)c(Cl)cc1N1CCCC1,0.3
C#CCNc1nc(CC)nc2c1nnn2Cc1ccccc1F,2.5
CC(=O)CC(c1ccccc1)S(=O)(=O)c1ccc(C)cc1 (stereo not drawn),0.4
Clc1ccccc1CSc1nnc(-c2ccco2)c(-c2ccco2)n1,i
COc1ccc(-n2nnnc2SCC(=O)Nc2ccc3c(c2)OCCO3)cc1OC,i
O=C(CCn1nnc2ccccc21)Nc1nnc(COc2ccc(F)cc2)s1,0.2
COc1ccc(N(C(=O)c2ccco2)C(C(=O)NC2CCCC2)c2ccc(N(C)C)cc2)cc1 (stereo not drawn),i

# 3 compounds already listed, ordered by count of non-hydrogen atoms, highest first.
SMILES,H5N1 CPE
N#CC1=C(N)Oc2n[nH]c(-c3ccccc3)c2C1c1cccc(OC(=O)N2CCOCC2)c1 (stereo not drawn),i
COc1ccc(-n2nnnc2SCC(=O)Nc2ccc3c(c2)OCCO3)cc1OC,i
O=C(CCn1nnc2ccccc21)Nc1nnc(COc2ccc(F)cc2)s1,0.2

# Compounds from the list above with two or more sulfur atoms:
SMILES,H5N1 CPE
C=CCSc1nnc(-c2cc3c(C(F)(F)F)nn(C)c3s2)n1C,i
CSc1nsc(/C=C/Nc2cccc(Cl)c2)c1C#N,0.8
NC(=O)CSc1oc(-c2ccc(F)cc2)nc1S(=O)(=O)c1ccccc1,i
Cc1nc(SCC(=O)N2CCc3ccccc3C2)c2c(C)c(C)sc2n1,0.2

# More entries follow:
SMILES,H5N1 CPE
COc1ccc(N2C(=O)C(Cl)=C(N3CCCC(C)C3)C2=O)cc1 (stereo not drawn),1.0
CCOC(=O)c1c(C)[nH]c(C(=O)CSc2ccc(Cl)cc2)c1C,i
Cc1noc(/C=C/N(C)C)c1S(=O)(=O)N1CCCC(C(=O)N2CCCCC2)C1 (stereo not drawn),0.9
O=S(=O)(NCc1ccccn1)c1cccc2nsnc12,1.3
O=C(Cn1cnc2ccccc2c1=O)NCC(=O)N1CCN(Cc2ccc3c(c2)OCO3)CC1,0.1
Cc1cc(=O)oc2ccc(OCC(=O)NCc3ccco3)cc12,4.3
O=C(NCCc1cccs1)C1CC(c2ccccc2[N+](=O)[O-])=NO1 (stereo not drawn),1.7
COc1ccc(CSc2nnnn2C)cc1[N+](=O)[O-],0.3
COc1cc(NC(=O)C(C)Oc2ccccc2)c(C(=O)O)cc1OC (stereo not drawn),0.3
C=CCN1CCN(C(c2ccc(Cl)cc2)c2nnnn2CCc2ccc(OC)c(OC)c2)CC1 (stereo not drawn),i
CCOC(=O)C1CCN(C(=O)Nc2ccc3c(c2)nc(C)n3C)CC1,0.2
CCOC(=O)c1ccc(Oc2cc(C)nc(SC)n2)cc1,i
Nc1c(C(=O)Nc2ccccc2)sc2nc(-c3ccco3)ccc12,i
O=C(NC(=S)Nc1ccc(N2CCCCC2)c(Cl)c1)c1ccc2c(c1)OCCO2,i
CCn1cc(C(=O)NCc2ccccc2OC)c(=O)c2cc(S(=O)(=O)N(C)C)ccc21,i
COC(=O)c1cn(Nc2ncc(C(F)(F)F)cc2Cl)c(=O)c2ccccc12,0.3
COC(=O)c1[nH]c2cc(OC)ccc2c1NC(=O)CCN1CCN(c2ccccc2)CC1,1.7
O=C1N(Nc2ccccc2)C(c2ccc(Br)cc2)C12CCCC2 (stereo not drawn),0.3
O=c1cc(CSc2ccccn2)[nH]c(=O)[nH]1,0.2
Cc1cc(-c2ccccc2N)n[nH]1,i
CCOC(=O)CSc1nnc(CNC(=O)c2ccc(OC)c(OC)c2)n1C,0.3
Cc1ccc(C)c(OCC(=O)Nc2cccc(C(=O)O)c2)c1C,i
Cc1cc(=O)oc2cc(OCC(=O)NCCc3nc4ccccc4[nH]3)ccc12,i
CC(=O)N1CC=C2C(C#N)=C(N)C(C#N)(C#N)C(CCc3ccccc3)C2C1 (stereo not drawn),1.8
O=C(CN1CCOCC1)c1c[nH]c2ccccc12,i
SMILES,H5N1 CPE
COCCCNc1ccnc2c(Cl)cccc12,i
CCOc1ncccc1C(=O)Oc1ccc2c(c1)OCO2,i
O=C(CCSc1nc(-c2ccco2)cc(C(F)(F)F)n1)N1CCN(c2ccccn2)CC1,i
CC(C)(C)NC(=O)CN(Cc1cccs1)C(=O)CCC(=O)Nc1nccs1,1.4
CCn1c(SC)nc(O)c(C(c2ccc(OC)c(O)c2)c2c(O)nc(SC)n(CC)c2=O)c1=O,0.1
COc1ccc(-n2nnnc2SCC(=O)Nc2ccccc2)cc1,0.2
CN(C)C(=O)CNC(=O)C1CCCCC1,i
CC(=O)Nc1sc2c(c1C(N)=O)CCCC2,0.8
CC(NC(=O)NC(N)=O)(C(F)(F)F)C(F)(F)F,0.4
Oc1ccc(/C=N/Nc2cccc3cccnc23)c(O)c1,0.3
CC(=O)c1cccc(NC(=O)Nc2cc3sccc3n2C)c1,0.2
CCOC(=O)c1cnc(SCc2nc(N)nc(Nc3ccc(OC)cc3)n2)nc1N,i
C=C(C)c1cccc(C(C)(C)NC(=O)N2CCCC(C(N)=O)C2)c1 (stereo not drawn),1.1
O=C1CC(c2ccccc2)n2nc(NC(=O)C3CCCO3)nc2N1 (stereo not drawn),0.6
c1ccc2c(c1)nc1sccn12,i
O=C(Nc1ccc2c(c1)nc1n2CCSC1)c1ccccc1,i
Cc1ccc2nc(C3CCCN(C(=O)NCc4ccccc4)C3)[nH]c2c1 (stereo not drawn),0.1
N#Cc1cccc(CSc2nnc(CCCO)n2-c2ccccc2)c1,2.2
CCOC(=O)C1CCN(C(=O)COC(=O)COc2ccccc2OC)CC1,0.1
C=CCNc1ncnc2c1cnn2-c1ccc(C)cc1C,i
CCCCn1c(O)c(C(C)=NC(C)c2ccccc2)c(=O)[nH]c1=O (stereo not drawn),0.1
CSCCC(C(=O)OCC(=O)c1ccc(C)c(C)c1)N1C(=O)c2cc(Cl)c(Cl)cc2C1=O (stereo not drawn),0.3
COc1ccccc1NC(=O)C(C)NS(=O)(=O)c1ccc(Cl)cc1 (stereo not drawn),i
O=C(C1CC1)n1cc(C(=S)N2CCOCC2)c2ccccc21,i
O=S(=O)(Nc1ncnc2sc3c(c12)CCC3)c1ccc(Cl)s1,3.4

# Given bar-delimited: entries from further up.
SMILES | H5N1 CPE
N#Cc1cccc(CSc2nnc(CCCO)n2-c2ccccc2)c1 | 2.2
C=CCNc1ncnc2c1cnn2-c1ccc(C)cc1C | i

# New compounds follow:
SMILES,H5N1 CPE
COC(=O)Nc1nnc(Cc2ccccc2)s1,0.1
Cc1cc(C)c(C#N)c(SCc2ccc3c(c2)OCO3)n1,i
CCCCCCOc1ccc(N2C(=O)CC(NCCc3ccc(S(N)(=O)=O)cc3)C2=O)cc1 (stereo not drawn),0.2
Fc1ccc(-n2c(-c3ccco3)nc3nc4ccccc4nc32)cc1,0.2
Cc1ccc(-n2nnc3c(SCC(=O)NCc4ccco4)ncnc32)cc1,0.3
O=C(C1CC(c2ccc(F)cc2)=NO1)N1CCN(c2ccccc2)CC1 (stereo not drawn),2.3
CCCSc1nc(C)c(C(C)=O)cc1C#N,1.9
CCOc1cc(C)c(Cl)cc1S(=O)(=O)N(C)C,1.9
CNc1nnc(-c2cc3cc(Cl)ccc3oc2=O)s1,0.2
Cc1ccc(OCCn2c(NC(=O)c3ccco3)nc3ccccc32)cc1,i
COC(=O)c1ccc(C(C(=O)NC2CCCCC2)N(C(=O)Cc2cccs2)C2CC2)cc1 (stereo not drawn),i
CCOc1ccc2nc(N3CCC(C(=O)N4CCN(c5ccccn5)CC4)CC3)sc2c1,0.9
CCOC(=O)c1c(-c2ccco2)csc1N,0.9

# Screening data (PubChem BioAssay)

# The list is partial, so the mix of outcomes need not match the whole.
